# Assay outcomes deposited in PubChem by ICCB-Longwood Screening Facility, Harvard Medical School.
# BasE inh: BasE siderophore enzyme inhibitors, primary screen, biochemical, Acinetobacter baumannii ATCC 17978, fluorescence polarization; purified BasE, fluorescence polarization binding displacement; inhibition, % (test concentration not listed); 84,000 tested, 0.1% active; AID 485350, 2010;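 active means both replicates above 25% with normal brightness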;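 further: 0% = negative plate control signal and 100% = positive plate control signal; stock transfer was 100 nL into about 30 µL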
# KSHV LANA nucl: inhibitors of KSHV LANA-nucleosome binding, primary screen, biochemical, fluorescence polarization, FITC-LANA1-23, chicken nucleosomes. 51,000 tested, 0.3% active. FITC-LANA1-23 / chicken nucleosome fluorescence polarization; active compounds read low. z-score (concentration not given with the values). AID 720717, 2013;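 active means both repeat wells score below -2 in polarization z-score versus plate sample wells, excluding overly bright wells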;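 further: 100 nL library stock added to about 30 µL; numbers are from one replicate; some results filed as inactive read as strong as hits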
#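 Test system: purified chicken nucleosomes with FITC-labelled LANA N-terminal peptide (1-23); Input: 240 nM purified chicken nucleosomes (480 nM peptide binding sites), final; Medium: TEN-BT buffer, pH 7.5; Timing: 10–45 min, room temperature; Technique: fluorescence polarization, 480 nm excitation, 535 nm parallel and perpendicular emission; Replication: duplicates.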
# Active calls of the source: *; x = no result given; ! = a repeat was not active. These rows are one share of the data; rates above refer to the full screens.
SMILES,BasE inh,KSHV LANA nucl
CSc1cccc(N/C(=N\S(=O)(=O)c2ccccc2)NN)c1,1.4,-0.14
CC(C)N(Cc1ccccc1)S(=O)(=O)c1ccc(F)cc1,4.5,0.26
CCOC(=O)CN1C(=O)C(O)(c2c[nH]c3ccccc23)c2ccccc21 (configuration not stated),4.5,0.014
O=C(O)CN1C(=O)c2cccc3c(Br)ccc1c23,3.7,-1.2
Cc1ccc2c(CSc3nnc(-c4ccccc4)o3)cc(=O)oc2c1,-1.9,x
Cc1cc2nc3c(=O)[nH]c(=O)nc-3n(C(O)C(O)C(O)C(O)CO)c2cc1C (configuration not stated),11,x
CC(=O)[C@]1(O)Cc2c(O)c3c(c(O)c2[C@@H](O[C@H]2C[C@H](N)[C@H](O)[C@H](C)O2)C1)C(=O)c1ccccc1C3=O,x,-10*!
C/C(=N\n1c(C)nc2sc3c(c2c1=O)CCCC3)N(C)C,2.0,x
Cn1c(CN2CCOCC2)nnc1SCC(N)=O,1.1,0.093
O=C1c2ccccc2C(=O)N1CC1CC2C=CC1C2 (configuration not stated),0.9,x
CN(Cc1ccccc1)C(=O)C1CCN(S(=O)(=O)c2ccc3c(c2)CCCC(=O)N3)CC1,0.3,x
CCC(SC1=Nc2ccccc2C2=NC(CCC(=O)NCc3ccc4c(c3)OCO4)C(=O)N12)C(=O)NC1CCCCC1 (configuration not stated),-0.1,2.5

# Reprinted from the part before: 4 compounds; new compounds follow.
SMILES,BasE inh,KSHV LANA nucl
Cn1c(CN2CCOCC2)nnc1SCC(N)=O,1.1,0.093
O=C1c2ccccc2C(=O)N1CC1CC2C=CC1C2 (configuration not stated),0.9,x
CN(Cc1ccccc1)C(=O)C1CCN(S(=O)(=O)c2ccc3c(c2)CCCC(=O)N3)CC1,0.3,x
CCC(SC1=Nc2ccccc2C2=NC(CCC(=O)NCc3ccc4c(c3)OCO4)C(=O)N12)C(=O)NC1CCCCC1 (configuration not stated),-0.1,2.5
CCc1ccc(NC(=O)COC(=O)c2ccc3c(c2)nc(C)c(=O)n3CC)cc1,-0.4,x
CCN(CC)C(=O)c1noc2c1CCCCC2,0.9,x
CCOC(=O)Nc1cc(=O)c2ccccc2o1,0.8,x
C#CCCCCCCCCCCCCCCCC(=O)O,1.6,-0.19
O=C(NCc1ccccc1)C1CC=CCC1C(=O)NNc1ncnc2ccccc12 (configuration not stated),2.2,x
CCCN1C(=O)/C(=C/C=C2/Oc3ccccc3N2CCC(=O)O)N(CCO)C1=S,8.2,x
COn1c(=O)c(=O)n(OC)c2ccccc21,-2.5,1.8
CCNc1cc(N2CCC(C)CC2)c2noc3c2c1C(=O)c1ccccc1-3,-3.6,-0.49
O=C(CCN1c2ccccc2Sc2ccccc21)NCCN1CCOCC1,0.4,x
CC1CCc2ccccc2N1 (configuration not stated),0.4,0.32
Clc1nc2ccccc2c(N2CCCCC2)c1CNC1CC1,0.1,-0.49
CCOC(=O)CCCn1ncn2c(cc3sc(CC)cc32)c1=O,0.7,-1.6
O=C(COC(=O)C1(c2ccccc2)CC1)c1ccc[nH]1,0.1,x
CC1CC(Nc2ccccc2)c2ccccc2N1C(=O)c1ccccc1F (configuration not stated),1.8,x
CC(Sc1nnc(-c2cccc(Br)c2)n1C)C(=O)NC1CC1 (configuration not stated),3.5,x
Cc1cc(C(F)(F)F)nn1CC(=O)NN1C(=O)c2ccccc2C1=O,0.0,0.27
O=C(CSc1nnc(-c2ccccc2)n1-c1ccccc1)N/N=C/c1ccc(O)c(O)c1,5.9,-0.21
Cc1cc(C)nc(SCC(=O)OCc2cc(=O)n3ccsc3n2)n1,-1.8,x
O=C(O)c1cc(-c2ccccc2)nc2nc(N3CCCCC3)sc12,3.7,x
COC(=O)c1ccc(COc2ccc3c(oc(=O)c4cc(OC)ccc43)c2C)o1,1.9,-0.99
CCN1C(=O)/C(=C/N(C)c2ccccc2)OC1=S,-1.0,x
CC(C)NC(=O)CNCc1ccc(N2CCCCC2)cc1,-1.1,x
Cc1ccc2nc(-c3ccccc3)cc(C(=O)NCc3ccccc3)c2c1,0.9,x
O=c1[nH]c(SCc2ccccc2)nc2[nH]ncc12,-0.8,-0.36

# Six of these compounds in another layout.
compound | BasE inh | KSHV LANA nucl
Cc1cc(C)nc(SCC(=O)OCc2cc(=O)n3ccsc3n2)n1 | -1.8 | x
O=C(COC(=O)C1(c2ccccc2)CC1)c1ccc[nH]1 | 0.1 | x
CC(C)NC(=O)CNCc1ccc(N2CCCCC2)cc1 | -1.1 | x
O=C(CSc1nnc(-c2ccccc2)n1-c1ccccc1)N/N=C/c1ccc(O)c(O)c1 | 5.9 | -0.21
Cc1ccc2nc(-c3ccccc3)cc(C(=O)NCc3ccccc3)c2c1 | 0.9 | x
CSc1cccc(N/C(=N\S(=O)(=O)c2ccccc2)NN)c1 | 1.4 | -0.14

# (further entries)
SMILES,BasE inh,KSHV LANA nucl
Nc1cccc2c1C(=O)N(CC(=O)O)C2=O,14,-0.081
O=C(c1c(F)cccc1Cl)N1CCN(Cc2ccc3c(c2)OCO3)CC1,x,-0.19
c1ccc2c(Cc3c[nH]c4ccccc34)c[nH]c2c1,-3.2,0.7
CCn1cc(SCC(=O)Nc2cccc(OC)c2)c2ccccc21,-1.2,-0.4
CCSc1nc(-c2ccccc2)c(C#N)c(=O)[nH]1,3.8,-0.59
CC(C)c1ccc(CNC2CC2)cc1,-1.3,x
O=C(Cn1nc(-c2ccc(F)cc2)oc1=O)OCc1nnc(-c2cc3c(s2)CCCC3)o1,4.6,x
CCOc1ccc(CC(=O)NCC(c2ccc(OC)cc2)N2CCOCC2)cc1 (configuration not stated),3.2,x
COC(=O)c1ccc(CSc2nc3ccc(C)cc3[nH]2)o1,-4.3,x
CSc1ccc(/C=C/C(=O)Nc2ccc(-n3cnnn3)cc2)cc1,-1.5,x
O=C1CC2(CCCC2)C(=O)N1c1cc(C(F)(F)F)cc(C(F)(F)F)c1,1.9,x
COC(=O)c1cccc(Oc2ncnc3c2oc2ccccc23)c1,-0.9,x
Cc1ccc(OCc2nnc(SCc3cccc(C#N)c3)n2N)cc1C,0.8,-1.6
Cn1c(CSCC(=O)Nc2ccccc2)nnc1SCC(=O)c1ccccc1,0.6,x
O=C(Nc1ccccc1C(F)(F)F)c1ccco1,2.0,-0.49
COc1ccc(S(=O)(=O)N(C)Cc2ccc(OC)cc2OC)cc1,-1.1,x
O=C(NCc1ccc(F)cc1)/C(=C/c1cccs1)c1ccccc1,x,2
CCN1CCN(C/C=C/c2ccccc2)CC1,3.0,-0.18
COc1ccc(C2c3sc(=O)[nH]c3SC3C(=O)N(c4ccccc4)C(=O)C32)cc1 (configuration not stated),-1.3,2.9
Cc1cc(C)cc(C(=O)Nc2ccc3[nH]c(=O)[nH]c3c2)c1,-0.6,-0.037
FC(F)(F)c1cccc(NCCNc2nccc(C(F)(F)F)n2)n1,0.2,-0.16
CCOC(=O)Cc1n[nH]c(=S)n1C1CCCCC1,3.9,x
CC(=O)Nc1ccc(S(=O)(=O)N(C)c2ccc(OCC(=O)OCC(=O)N3CCCCC3)cc2)cc1,-5.5,x
CCCn1c(NC(=O)Cc2coc3cc(OC)ccc23)nc2ccccc21,-6.8,x
O=C(O)/C=C/C(=O)Nc1ccc(C(F)(F)F)cc1,5.6,0.13
N#CCOC(=O)/C(=C\c1cccs1)c1cccs1,-0.6,x
CCOC(=O)c1c(/C=C/N(C)C)oc2ccc(O)cc12,-1.5,-0.2
CNc1ccccc1C(=O)OCC(=O)c1cccs1,-1.6,x
Cc1ccc(S(=O)(=O)Cn2nnnc2CN2CCC(Cc3ccccc3)CC2)cc1,-0.2,-0.32
N#CC1(NC(=O)CN2CCCCC2c2nc3ccccc3s2)CCCC1 (configuration not stated),0.8,x
CCS(=O)(=O)c1ccc2oc(SCC(=O)N3CC(C)OC(C)C3)nc2c1 (configuration not stated),0.0,x
CC(C)NC(=O)c1ccccc1N(Cc1ccccc1)S(C)(=O)=O,3.5,-0.037
CCN1C(=O)/C(=C2/Sc3ccc(OC)cc3N2CC)SC1=Nc1ccc2c(c1)OCCO2,0.7,0.17
CC(Sc1nnc(N)s1)C(=O)Nc1ccc(N2CCOCC2)cc1 (configuration not stated),1.2,x
COC(=O)CCC(=O)Nc1ccc(Oc2ccccc2)cc1,-1.4,-0.3
CC(C)Cn1cc(NC(=O)N2CCCc3ccccc32)c2ccccc2c1=O,1.2,x
Cc1[nH]c(C)c2c(=O)n(C)ncc12,-2.1,0.086
O=C(NNC(=O)c1ccc(Br)cc1)NC1CCCCC1,1.2,x
Cc1ccc2c(CC(=O)OC3CCOC3=O)coc2c1 (configuration not stated),-0.4,x
COCC(=O)Nc1ccccc1C(C)C,-0.8,0.24
CC1Cn2c(C(=O)Nc3ccc(Cl)cc3)cc3cccc(c32)S1 (configuration not stated),0.8,-0.1
CC(=O)Nc1nnc(CC(C)(C)C)s1,-0.8,-1.3
Cc1ccccc1-c1nc(CN2CCCC(C(=O)O)C2)c(C)o1 (configuration not stated),3.0,-0.4
CC(C)(C)NC(=O)c1ccc2c3c(onc13)-c1ccccc1C2=O,5.8,x
CC(=O)Nc1ccc(-n2c(N)c(C(=O)NC3CCCC3)c3nc4ccccc4nc32)cc1,-1.5,-1.3
COc1cccc(NC(=O)C(C)N(c2ccccc2)S(C)(=O)=O)c1 (configuration not stated),2.7,-0.55
O=C(/C=C/c1ccco1)CC1(O)C(=O)N(Cc2ccccc2Cl)c2ccccc21 (configuration not stated),-3.5,0.55
O=C(O)CC1SC2=NCCN2C1=O (configuration not stated),-0.3,-1.7
CC1C(=O)NN=C1C(=O)N/N=C\c1cccnc1 (configuration not stated),1.6,-0.72
CSc1nc2ccc(S(=O)(=O)Nc3ccccc3C)cc2s1,1.2,2.5
CCC1=[N+](CC(=O)c2ccccc2)CCn2cccc21,-4.5,2
CCCC(Nc1ccccn1)n1nnc2ccccc21 (configuration not stated),1.4,0.54
O=C(Nc1ccccc1N1CCCCC1)C1CCCCC1,x,-0.16
Cc1cnc(C(=O)Nc2ccc(S(=O)(=O)N(C)C)cc2)cn1,6.1,-0.87
CCn1ccc(C(=O)Oc2ccc(C(C)C)cc2)n1,-3.4,0.53
Cc1cc(C(=O)CSc2nnc3n2CCCCC3)c(C)n1C1CCS(=O)(=O)C1 (configuration not stated),-0.8,x
COCCn1c(=O)[nH]c2cc(C(=O)NCc3ccc(OC(F)(F)F)cc3)ccc21,0.6,-0.079
O=S1(=O)CCN(Cc2ccc(N3CCOCC3)cc2)CC1,x,-0.35
O=C(OCC(O)CN1CCN(c2ccccc2)CC1)c1ccccc1 (configuration not stated),-1.8,1.1
CC(=O)N1c2ccccc2C(=O)C1N(C)Cc1ccccc1 (configuration not stated),-0.2,x
# More structures.
SMILES,BasE inh,KSHV LANA nucl
Cc1cn(Cc2ccccc2)c(=O)[nH]c1=O,0.3,0.43
CS(=O)(=O)CS(=O)(=O)Nc1ccc2c(c1)OCCO2,-0.1,x
O=C(C1CC1)N1CCN(C23CC4CC(CC(C4)C2)C3)CC1,-0.1,0.34
COc1ccc(N(C(C)C(=O)N(C)C)S(C)(=O)=O)cc1 (configuration not stated),1.2,0.21
Cc1ccc(Oc2ccc(C#N)cc2)c(C)c1,x,-0.66
O=C1CSC(c2ccc(Cl)cc2)N1CCN1CCCCC1 (configuration not stated),0.6,0.31
COc1cc(C2C(C(=O)c3cc4cccc(OC)c4o3)=C(O)C(=O)N2c2nnc(C)s2)cc(Br)c1O (configuration not stated),-17,1.9
Cc1cc(C)c(NC(=O)CN(C)CC(N)=S)c(C)c1,-1.7,x
CN1C(=O)CSc2ccccc21,5.3,-0.014
COc1cc(NC(=O)CNc2cc(Cl)cc(Cl)c2)cc(OC)c1,0.2,x
N#CC(C(=O)c1nc(N2CCN(Cc3ccccc3)CC2)ncc1Cl)c1nc2ccccc2c(=O)[nH]1 (configuration not stated),1.1,x
O=C(Nc1ccc2nc(CN3CCCCC3)[nH]c2c1)c1ccccc1F,-1.8,0.25
CCCn1[nH]cc(SC)c(=O)c1=O,4.4,0.084
CN(Cc1ccccc1)C(=O)c1noc2c1CCCC2,-0.4,x
O=C(O)/C=C\c1cccn1-c1nccs1,x,-0.28
Cn1c(=O)n(C)c2cc(CNC3C4CC5CC(C4)CC3C5)ccc21 (configuration not stated),-2.1,-1.4
Nc1nc(N)c2nc(CNc3ccc(C(=O)NC(CCC(=O)O)C(=O)O)cc3)cnc2n1 (configuration not stated),3.2,-0.92
O=C(c1ccco1)N1CCN(C(=O)C(NS(=O)(=O)c2cccc3nsnc23)c2ccccc2)CC1 (configuration not stated),0.7,-1.1
N#Cc1ccccc1CSc1nnc2c(n1)[nH]c1ccccc12,-1.0,0.33

# Compound profiles, as listed above:
# Shown for O=C(O)/C=C\c1cccn1-c1nccs1 : BasE inh: x; KSHV LANA nucl: -0.28
# Shown for Nc1nc(N)c2nc(CNc3ccc(C(=O)NC(CCC(=O)O)C(=O)O)cc3)cnc2n1 (configuration not stated) : BasE inh: 3.2; KSHV LANA nucl: -0.92
